# PABP polyA inh: PABP poly(A) RNA binding inhibitors, primary screen, biochemical, fluorescence polarization, uHTS. AID 2014, 2009. actives 1% (n = 290,000). inhibition, % at 35 µM;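 active = 50% or more with normal probe brightness, or confirmed in later tests; inconclusive = above 50% with abnormal brightness, or retests that disagree; inactive = below 50% or failed in later tests; about a fifth of its hits are not listed in these tables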;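 also: calls also rest on retests at 20 µM and on dose response follow-up; controls were probe without protein and protein plus probe with vehicle; some compounds called inactive have numbers as strong as hits; many hits fall short of the cut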
# Target sequence (P11940 whole entry, looked up): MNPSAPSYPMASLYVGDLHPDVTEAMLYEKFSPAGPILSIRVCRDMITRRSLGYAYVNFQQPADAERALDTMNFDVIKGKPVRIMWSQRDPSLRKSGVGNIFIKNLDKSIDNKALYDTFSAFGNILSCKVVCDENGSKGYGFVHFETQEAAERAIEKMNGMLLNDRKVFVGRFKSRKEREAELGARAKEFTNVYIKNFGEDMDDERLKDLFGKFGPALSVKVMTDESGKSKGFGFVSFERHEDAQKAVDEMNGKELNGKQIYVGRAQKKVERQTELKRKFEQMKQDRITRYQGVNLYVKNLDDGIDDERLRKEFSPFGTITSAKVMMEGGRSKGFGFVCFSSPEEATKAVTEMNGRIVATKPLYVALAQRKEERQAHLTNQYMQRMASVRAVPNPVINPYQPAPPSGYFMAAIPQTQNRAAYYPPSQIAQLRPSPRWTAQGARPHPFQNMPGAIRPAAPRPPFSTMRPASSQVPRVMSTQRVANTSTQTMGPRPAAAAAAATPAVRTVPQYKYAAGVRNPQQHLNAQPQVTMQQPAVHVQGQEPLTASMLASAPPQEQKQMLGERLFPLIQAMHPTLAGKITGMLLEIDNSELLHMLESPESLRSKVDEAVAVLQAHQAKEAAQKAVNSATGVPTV
# MT1-MMP act inh: blockers of MT1-MMP proenzyme processing, primary screen, HT1080 RFP-PRO-GFP cells, GFP/RFP fluorescence | Matrix metalloproteinase-14 (Homo sapiens), P50281 | GFP/RFP ratio fluorescence, overnight; percent of plate control window, DMSO zero | GFP/RFP ratio change, % at 20 µM | actives 0.061% (n = 360,000) | AID 651647, 2012;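 active = GFP/RFP ratio change of at least 30% with cell ATP level not reduced by more than half and red fluorescence within 50% of control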; also: strong numbers were not always called active
#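 Material: RFP-PRO-GFP reporter HT1080 cells. Dosing: single-point 20 µM compound, 1% DMSO. Controls: DMSO and RFP-L50D-GFP cell wells. Timing: cells overnight before dosing, compound overnight, 37 °C, 5% CO2. Measure: GFP/RFP fluorescence ratio.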
# eIF4H inh: human eIF4H binding inhibitors, primary screen, translation initiation inhibitor project, biochemical, uHTS, fluorescence polarization; eIF4H fluorescence polarization binding assay; Eukaryotic translation initiation factor 4H (Homo sapiens), Q15056; actives 0.94% (n = 290,000); inhibition, % at 35 µM;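 active = 50% or more with normal probe brightness, or confirmed in later tests; inconclusive = above 50% with abnormal brightness, or retests that disagree; inactive = below 50% or failed in later tests; about a fifth of its hits are not listed in these tables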;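 also: calls also rest on retests at 20 µM and on dose response follow-up; 0% = protein and probe with vehicle and 100% = probe without protein; strong numbers were not always called active; many hits fall short of the cut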
# Env fusion inh: inhibitors of HIV-1 Env-driven cell-cell fusion, primary screen, HeLa-JRFL effector, CEM21 target cells, luciferase. inhibition, % at 12.3 µM. actives 1.1% (n = 360,000). AID 651610, 2012;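 active = mean replicate inhibition score of at least 50 and every replicate individually at or above 50; inconclusive = only one of the two criteria met; inactive = mean below 50 and not all replicates reaching 50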;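 also: 0% = plate neutral controls and 100% = maraviroc near 300 nM; one replicate is shown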
# Rce1 inh: yeast Rce1p protease inhibitors, primary screen, biochemical, fluorescence, cell-free homogeneous; yeast membranes, quenched prenylated peptide cleavage fluorescence; calls only; actives 0.27% (n = 290,000);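 active = fall in fluorescence gain of 50% or more versus controls, with final raw signal at or below 3038400; inconclusive = same 50% fall but final raw signal above 3038400; inactive = fall in fluorescence gain under 50%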;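 also: plate controls were neutral control wells for no effect and wells lacking membranes for full effect; tested at 10 µM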
# UUG fidelity: modulators of yeast start codon fidelity, primary screen, whole organism, S. cerevisiae, single point, plate reader. S. cerevisiae UUG-firefly luciferase reporter, luminescence/redox ratio. actives 0.13% (n = 350,000). AID 602363, 2012. activity score, % at 18.7 µM;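 active = replicate mean at a twofold rise or more, about +100% in these data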;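 also: firefly luciferase made from a UUG start codon reports start codon fidelity; reporter light over untreated wells divided by growth signal over untreated wells; some hits fall short of that in this replicate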
# CSC inhib: cancer stem cell viability inhibitors, primary screen, luminescence; cancer stem cell-like cells viability; actives 1.1% (n = 300,000); AID 2717, 2010; inhibition, % at 7.5 µM;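 active = mean at 75% or more and at least half the replicates too; inconclusive = mean and replicates disagree; tested in HMLE shEcad cells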;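 also: 0% = median of negative and 100% = median of positive control wells; the first replicate is given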
# eIF4H inh retest: second read-out of eIF4H inh, no call of its own (marks repeat the call); inhibition, %; compound at 20 µM; confirmation average;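 mean of two retest wells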
# PABP polyA inh retest: recorded beside PABP polyA inh, whose call it bears; inhibition, %; compound at 20 µM; confirmation repeats;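 mean of two retest wells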
# MT1-MMP act inh RFP: also measured in MT1-MMP act inh; calls as there; RFP signal change, %; measured here: RFP expression control read;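 0 = vehicle wells; hits needed this value within 50% of zero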
# Active calls of the source: *; i = inactive; ? = inconclusive; · = not tested or not shown. These rows are one share of the data; rates above refer to the full screens.
SMILES,PABP polyA inh,MT1-MMP act inh,MT1-MMP act inh RFP,eIF4H inh,Env fusion inh,Rce1 inh,UUG fidelity,CSC inhib,others
COc1cc(/C=N/NS(=O)(=O)c2ccc(C)cc2)ccc1OCc1cccc(C(=O)O)c1,7,-8,-4,4,72*,i,-67,·,
Cc1cc(C)cc(-n2nnnc2SCC(=O)N2CCOCC2)c1,74,2,3,-1,0,i,-6,-4,eIF4H inh retest=-1;PABP polyA inh retest=3
CN(C(=O)CSc1nc2ccccc2c(=O)n1-c1ccc(F)cc1)C1CCS(=O)(=O)C1 (centres undefined),·,5,5,·,-4,·,-2,·,
COc1ccc(/C=N\NC(=O)COc2ccc(Cl)cc2Cl)c(C(=O)O)c1OC,0,7,8,-5,-6,i,6,6,
O=C(NNC(=O)c1cc2cc(Br)ccc2oc1=O)c1ccc(O)cc1O,4.2*,3,-2,85*,15,i,·,77*,eIF4H inh retest=76*;PABP polyA inh retest=54*
COc1ccc(Cn2c(SC)nc3ccccc32)cc1[N+](=O)[O-],15,4,-1,2,-16,i,-2,0,
COc1ccc(N2CCN(S(=O)(=O)c3ccc4c(c3)NC(=O)CC(=O)N4)CC2)cc1,-2,-4,-5,0,4,i,-17,3,
[O-]/[N+](=C\c1ccncc1)c1ccccc1,5,4,9,-5,·,i,·,25,
Cn1cccc1P(=O)(c1cccn1C)c1cccn1C,2,8,3,2,·,i,·,-12,
COc1ccc(S(=O)(=O)N2CCN(S(=O)(=O)c3ccc4c(c3)OCCO4)CC2)cc1,-3,2,2,1,·,i,·,1,
Cc1cc(C)n(-c2nc(NC(C)(C)C)nc(NC(C)(C)C)n2)n1,0,5,-4,-1,·,i,·,-4,
CC(Oc1ccccc1[N+](=O)[O-])C(=O)N/N=C/c1ccoc1 (centres undefined),0,2,2,5,-4,·,-23,-8,
COc1ccccc1-c1cc(C(F)(F)F)nc(S(=O)(=O)CCCC(=O)Nc2cc(C)on2)n1,-7,9,-9,-4,·,i,-7,-2,
O=C(NCCC1CCCCN1S(=O)(=O)c1ccccc1)C(=O)NCc1ccc(F)cc1 (centres undefined),·,-3,-6,·,·,i,12,-9,
Cc1ccc(-c2cnc(C(O)c3cc(Cl)cc(Cl)c3)[nH]2)cc1 (centres undefined),·,2,-1,·,-1,·,-20,·,
O=c1oc2ccccc2cc1-c1nnc(-c2cccc(Br)c2)o1,-4,·,·,4,-60,·,-14,-3,
COc1ccc(Br)cc1CNC(=O)C1CCN(c2nnc(N3CCCC3=O)s2)CC1,1,1,3,-6,1,i,5,-10,
Cc1nn(-c2ccccc2)c(Cl)c1/C=N/NC(=O)c1cccc(S(=O)(=O)N2CCCC2)c1,-2,2,-12,-1,33,i,3,8,
COc1ccc2c(c1)sc1nc(=O)ccn12,8,-1,1,-4,-1,i,-5,-1,
CCOc1cc(/C=C(\C#N)C(N)=O)ccc1OCc1c(C)no[n+]1[O-],-5,-2,-1,2,4,i,-10,-2,
CCOC(=O)CSc1nc(C)c2ccccc2n1,-7,1,6,5,·,i,·,-14,
CCOC(=O)CNC(=O)C(NC(=O)C1CCC(C)CC1)C(C)CC (centres undefined),0,2,-3,2,-2,i,-11,-6,
CC(C)c1ccc(/C=C/C(=O)CCC(=O)O)cc1,10,0,0,1,-55,i,·,-3,
COC(=O)c1ccc(CS(=O)(=O)c2ccccc2C)o1,·,3,4,·,-112,·,10,-6,
CCC(C)(C)NC(=O)C1CCCN1C(=O)NC1CCCCC1 (centres undefined),0,0,0,7,4,i,·,-3,
CCn1nnnc1SCC(=O)Nc1cccc(C)n1,-1,0,4,0,-17,i,-7,-7,
C=CCN(C(=O)COc1ccccc1)c1nnc(-c2ccncc2)s1,-2,-1,1,-3,-26,i,-21,-15,
COc1ccccc1NC(=O)c1cc(Cl)ccc1NC(=O)c1ccco1,3,-7,-3,-4,·,i,-17,-6,
CCOC(=O)C(=CNc1cc(C)ccc1[N+](=O)[O-])C(=O)OCC,11,1,1,-10,-6,i,-12,3,
CC1CCCCN1C(=O)c1c(Cl)cnn1C (centres undefined),-8,-9,-2,-8,3,i,-5,-15,
COc1cccc(C2C3CN(C)CC=C3C(C#N)=C(N)C2(C#N)C#N)c1OC (centres undefined),118,-70,-3,122,36,i,-7,-6,eIF4H inh retest=-2;PABP polyA inh retest=0
O=C(O)c1ccccc1NC(=O)C1CCCO1 (centres undefined),6,6,-1,-8,-23,i,-6,7,
CC(C)CN(CCCNC(=O)CN1C(=O)CSc2ccc(S(=O)(=O)N3CCOCC3)cc21)CC(C)C,-11,-4,4,-3,7,i,·,-9,
CCc1nccn1S(=O)(=O)c1cccc([N+](=O)[O-])c1,-10,0,5,-1,-8,i,·,14,
CC(C)(C)C(=O)Nc1ccc(-c2cn3cccnc3n2)cc1,-9,8,9,-6,-4,i,-19,-19,
COc1cnc(-c2ccccn2)nc1Sc1cccc(Cl)c1,-19,-1,-8,-5,-78,i,-35,0,
O=C(CSc1n[nH]c(-c2ccccc2)n1)Nc1ncccn1,-6,1,3,-1,-17,i,·,2,
COc1ccc(C2COC(=O)C2=N)c(NC(=O)c2ccccc2)c1 (centres undefined),-3,-7,0,-4,-6,i,·,0,
COc1ccc(OC)c(NC(=O)CSc2nnc(Cn3nnc4ccccc43)n2C)c1,-5,1,0,-5,-10,i,-17,-1,
O=S(=O)(NC(=S)NC1CCCCC1)c1ccc(Cl)cc1,0,-1,3,0,11,i,·,-13,
O=C(CC1SC(=Nc2cccc3ccccc23)N(Cc2ccccn2)C1=O)Nc1ccccc1Br (centres undefined),-2,-10,-13,-6,·,i,·,18,
O=C(COc1ccc(Cl)cc1Cl)NN1C(=O)C2C3C=CC(C3)C2C1=O (centres undefined),5,14,5,-7,-1,i,·,-4,
COc1ccc(/C=C(\C#N)C(=O)N=CN(C)C)cc1,4,0,5,5,21,i,·,-17,
CCCCN1CC(C(=O)NC2CCCCC2)CC1=O (centres undefined),13,-4,-1,-2,·,i,-21,-19,
Cc1nn(C)c(Oc2cccc(Cl)c2)c1C(=O)O,-5,-1,3,-24,-33,i,-20,-7,
C/C(=N/NC(=O)CNC(=O)c1cccnc1)c1ccccc1,1,-8,0,-1,9,i,-16,0,
O=C(COc1ccc(Cl)cc1Cl)NCCC1=CCCCC1,8,1,1,-7,·,i,0,·,
COc1ccc(S(=O)(=O)N(C)CC(=O)NC2CCCCC2)cc1OC,9,2,7,-3,·,i,-10,·,
COCCn1c(SCC(=O)Nc2ccccc2)nnc1-c1ccoc1C,10,-6,-2,-6,6,i,-20,-18,
COc1cccc(OCCNc2cc(N3CCCCC3)ccc2[N+](=O)[O-])c1,-10,-3,-19,-10,·,i,5,31,
O=C(O)c1ccc(Cl)cc1NC(=O)C1CCCO1 (centres undefined),8,-3,-1,4,-27,i,-19,-14,
CC(=O)Nc1ccc(S(=O)(=O)N2CCN(c3ncccn3)CC2)cc1,-3,-4,-6,-8,-1,i,9,·,
CS(=O)(=O)N1N=C(c2ccco2)CC1c1ccccc1 (centres undefined),-6,-2,3,-1,5,i,-17,-4,
CCCCn1c(SCC(=O)N2CCC(C)CC2)nc2ccsc2c1=O,-6,3,-8,-3,?,i,-14,25,
C=CCCC(=O)N1C[C@H]2CCN(C)[C@H]2C[C@H]1c1ccc(Br)cc1,·,-1,2,·,-23,·,-10,·,
Cc1onc(-c2c(F)cccc2Cl)c1C(=O)ONC(=O)c1ccccc1,2,2,0,-7,-5,i,-6,-9,
O=C(O)C1C2C=CC3(CN(Cc4ccncc4)C(=O)C13)O2 (centres undefined),9,4,11,-7,-37,i,-15,-3,
COc1ccc(-c2cc(C(F)(F)F)nc(SCCC(=O)NCc3ccco3)n2)cc1,-9,·,·,0,·,i,·,3,
Cc1nc(/C(N)=N/OC(=O)c2c(-c3ccccc3Cl)noc2C)cs1,34,3,0,-3,-7,i,·,18,
COc1ccc(-c2nc(-c3ccccc3)no2)c(OC)c1,4,-2,-1,-5,·,i,-82,5,

# Later entries:
SMILES,PABP polyA inh,MT1-MMP act inh,MT1-MMP act inh RFP,eIF4H inh,Env fusion inh,Rce1 inh,UUG fidelity,CSC inhib,others
CCN(CC(=O)Nc1ccc(OC)cc1)C(=O)c1oc2c(Cl)cccc2c1C,·,-4,-1,·,4,i,-21,-1,
COc1ccc(OC)c2[nH]c(=O)c(CCNC(=O)COc3ccccc3)cc12,0,6,5,-9,·,i,·,-5,
COc1ccccc1NC(=O)C/C(C)=N/NC(=O)COc1c(Br)cc(Br)cc1OC,-11,-2,1,-4,5,i,·,-6,
NCc1csc(Nc2ccc(C(=O)c3ccccc3)cc2)n1,·,-3,-12,·,-91,·,-17,·,
CC(=O)Nc1ccc(S(=O)(=O)NCC(=O)OCC(=O)NC23CC4CC(CC(C4)C2)C3)cc1,-11,0,2,-4,3,i,-2,-7,
COc1ccccc1C(=O)Nc1ccnn1C1CCN(C2CCSCC2)CC1,11,-2,4,58,-12,i,-21,-3,eIF4H inh retest=29;PABP polyA inh retest=30
COc1ccc([C@@]2(C(C)C)ON(c3ccccc3C(F)(F)F)C2=O)cc1,·,4,2,·,-2,·,-8,60,
CC1(C)Oc2ccc3ccc(=O)oc3c2/C(=C/O)C1=O,82,5,0,-2,-30,i,-7,-9,eIF4H inh retest=-3;PABP polyA inh retest=13
Cc1cc(/C=N/NC(=O)c2cccs2)c(C)n1-c1ccccc1,0,4,8,-5,-373,i,-75,22,
COCCNc1nnnc2c1sc1nc(N3CCOCC3)c3c(c12)CC(C)(C)OC3,-3,1,-1,5,-4,i,-11,-5,
OCCC1CN(Cc2cccn2-c2ncccn2)CCN1Cc1ccc(F)cc1 (centres undefined),2,-5,4,25,0,i,-18,-4,
O=C(O)c1ccc2c(=O)n(-c3ccc(F)c(Cl)c3)c(=S)[nH]c2c1,-5,5,4,-11,7,i,-16,-8,
COC(=O)NCCOc1nc(N(C)C)nc(N(C)C)n1,3,9,7,-1,-9,i,-21,13,
CCc1cc(C(=O)c2ccc(Br)cc2)c(NC(=O)CN(CC)CC)s1,4,-1,-1,-12,29,i,-5,21,
O=C(NCCCN1CCOCC1)c1ccc(Sc2cccc(Cl)c2)c([N+](=O)[O-])c1,6,-2,-5,13,30,i,·,·,
CCCc1ccc(-c2c(C)sc(N)c2C#N)cc1,6,-9,-10,9,-120,i,-6,27,
Cc1cc(C#N)c(C)n1-c1cc(S(=O)(=O)N2CCOCC2)ccc1N1CCCC1,2,-9,-1,-5,-17,·,-2,1,
Cc1cc(NC(=O)c2ccc(C)c(C)c2)no1,2,-2,-4,-4,-38,i,-10,-2,
O=C(NCCc1ccccc1)c1cccc(NC(=O)C2CCCC2)c1,·,0,2,·,0,·,-9,·,
Cc1ccc(C(C)C)cc1OCC(=O)Nc1ccc(-n2cnnn2)cc1,·,1,0,·,1,·,-14,·,

# Screening data from PubChem BioAssay.
